# HNF4A DNA FP = change in binding of human HNF4A to DNA, primary screen, biochemical, fluorescence polarization, FITC-DNA | Hepatocyte nuclear factor 4-alpha (Homo sapiens), P41235 | 1 h | activity change, % at 10 µM | 0.3% of 360,000 active; in the data active means activity change above about 30%, passing the limit was not always enough;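 further: controls were the assay level and a saturating level of protein; the project sought stronger binding though the title names inhibitors; some compounds called inactive have numbers as strong as hits; positive values seem to mean higher polarization but the record does not say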
# Vif A3G = inhibitors of Vif binding to APOBEC3G peptide, primary screen, biochemical, TR-FRET, GST-Vif 1-94, biotin-A3G peptide, dose response retest (AID 1117319) | 0.57% of 260,000 active | Virion infectivity factor (Human immunodeficiency virus type 1 group M subtype B (isolate … | inhibition, %, or IC50 in µM where a hit was titrated | TR-FRET GST-Vif / biotin-A3G peptide binding; higher % means a stronger effect; test concentration not given here; strong numbers were not always called active;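 active means above the screen mean plus three standard deviations and confirmed in dose response; inconclusive means results disagree or hit not tested in dose response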;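 further: Vif residues 1-94 fused to GST binding biotinylated APOBEC3G peptide 110-148; 0% = full assay without inhibitor and 100% = GST in place of GST-Vif; retest series ran down from 100 µM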
# UCH37 DUB inh = inhibitors of human UCH37 deubiquitinase, primary screen, biochemical, Ub-AMC cleavage, fluorescence. 0.33% of 330,000 active. AID 588478, 2011. inhibition, % (test concentration not listed). purified proteasome/UCH37. Ubiquitin carboxyl-terminal hydrolase isozyme L5 (Homo sapiens), Q9Y5K5;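 active means mean of two replicates above 20%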;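 further: 0% = compound-free wells with enzyme and 100% = wells lacking proteasome; stock transfer was 100 nL into about 20 µL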
# Target sequence (Q9Y5K5 whole entry, looked up): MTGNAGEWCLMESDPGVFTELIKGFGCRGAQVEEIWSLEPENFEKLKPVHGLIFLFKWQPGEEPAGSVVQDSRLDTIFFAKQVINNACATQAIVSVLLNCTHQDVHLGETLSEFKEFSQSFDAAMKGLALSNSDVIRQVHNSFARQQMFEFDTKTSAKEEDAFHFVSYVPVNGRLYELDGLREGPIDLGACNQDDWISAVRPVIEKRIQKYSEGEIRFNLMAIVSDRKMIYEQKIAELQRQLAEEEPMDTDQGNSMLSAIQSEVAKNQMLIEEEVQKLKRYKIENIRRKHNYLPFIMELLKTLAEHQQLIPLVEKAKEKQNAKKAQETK
#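 Material: Human UCH37 enzyme supplied as purified proteasome complex | Schedule: 30 min preincubation with enzyme, 25 min cleavage at room temperature | Detection: AMC fluorescence 355/460 nm | Measure: % inhibition of Ub-AMC cleavage fluorescence | Controls: Wells without proteasome as full block, compound-free enzyme plus substrate as uninhibited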
# E coli growth = E. coli growth inhibition, primary screen, OD600. Escherichia coli growth, 23 h; stronger effect = lower value. 0.21% of 330,000 active. OD600 absorbance (no concentration beside the values);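 active means OD600 absorbance below the run mean of sample wells minus 3.6 SD, in any replicate, cut at about 0.56 in these data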;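 further: stock transfer was 300 nL into about 60 µL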
# FGF22 binding = binders of human FGF22 protein, primary screen, FGF22 synaptogenesis inhibitor project, biophysical, thermal shift, single point. calls only at 9.99 µM. 1.5% of 340,000 active. recombinant FGF22 thermal shift, SYPRO orange fluorescence; percent of sucrose octasulfate shift, DMSO zero. Fibroblast growth factor 22 (Homo sapiens), Q9HCT0. AID 651658, 2012;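 active means melting point raised past a set limit in the mean and every replicate; inconclusive means no clear call; three in four hits are not shown here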
# Target sequence (Q9HCT0 whole entry, looked up): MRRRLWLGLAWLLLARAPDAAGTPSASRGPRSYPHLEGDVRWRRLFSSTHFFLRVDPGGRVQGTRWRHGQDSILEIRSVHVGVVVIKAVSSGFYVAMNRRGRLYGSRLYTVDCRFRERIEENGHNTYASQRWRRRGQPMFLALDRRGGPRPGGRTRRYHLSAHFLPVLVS
# RanGTP-Impb inh = inhibitors of RanGTP-importin-beta interaction, primary screen, biochemical, FRET, CFP-Ran, YFP-importin-beta, homogeneous; 1.1% of 300,000 active; AID 2216, 2009; Ran GTPase (GTP-bound) - importin-beta complex; cell-free CFP-Ran/YFP-importin-beta FRET ratio; inhibition, % (no concentration beside the values);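 active means most replicates above 15%; inconclusive means exactly half above 15%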;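 further: 0% = DMSO wells and 100% = Ran loaded with GDP instead of GTP; wells of about 40 µL received 100 nL stock; the first replicate is given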
# AF4-AF9 inh = inhibitors of AF4 peptide binding to AF9, primary screen, biochemical, AlphaScreen, biotin-AF4 peptide, FLAG-AF9, single point. Protein AF-9 (Homo sapiens), P42568. inhibition, % at 10 µM. 0.47% of 350,000 active. AID 651704, 2012;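 active means every replicate reaching a set inhibition limit, whatever the replicate mean, cut at about 25% in these data; inconclusive means mean inhibition reaches that limit but some replicates miss it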;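 further: 0% = plate neutral control median and 100% = total signal loss; the record names both 10 and 1 µM as test concentration; the first replicate is given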
# Target sequence (P42568 whole entry, looked up): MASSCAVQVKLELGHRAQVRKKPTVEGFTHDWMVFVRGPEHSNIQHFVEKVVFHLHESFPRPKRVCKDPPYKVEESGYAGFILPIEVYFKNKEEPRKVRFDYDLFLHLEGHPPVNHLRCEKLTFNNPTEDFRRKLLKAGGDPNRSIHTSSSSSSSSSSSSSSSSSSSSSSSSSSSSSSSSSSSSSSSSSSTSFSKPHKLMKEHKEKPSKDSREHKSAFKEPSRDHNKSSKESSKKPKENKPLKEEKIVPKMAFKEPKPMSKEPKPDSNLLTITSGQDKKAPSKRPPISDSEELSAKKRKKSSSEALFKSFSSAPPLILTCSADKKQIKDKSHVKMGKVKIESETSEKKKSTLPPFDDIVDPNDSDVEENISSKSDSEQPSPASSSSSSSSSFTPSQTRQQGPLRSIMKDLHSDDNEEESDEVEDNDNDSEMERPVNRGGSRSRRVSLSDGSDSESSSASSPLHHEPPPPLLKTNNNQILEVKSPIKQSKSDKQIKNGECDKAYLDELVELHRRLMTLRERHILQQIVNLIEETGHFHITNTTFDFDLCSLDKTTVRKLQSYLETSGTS
# Starred values were filed as active, the others as inactive; i = inactive; ? = inconclusive; / = no result given; & = joins results of further samples.
SMILES	E coli growth	FGF22 binding	UCH37 DUB inh	Vif A3G	RanGTP-Impb inh	HNF4A DNA FP	AF4-AF9 inh
CCOc1ccccc1N1CCN(C(=O)CN2C(=O)NC3(CCCC3)C2=O)CC1	/	i	/	/	-2.7	1.6	-0.9
O=C(COC(=O)c1ccc(Cl)nc1)Nc1ccc2c(c1)CCC2	0.63	i	-0.8	/	/	3.7	-2.1
COc1cccc(CN2CC(C(=O)N3CCCCCCC3)CCC2=O)c1 (stereo not given)	0.71	i	5.4	-3%	-1.9	7.0	-0.7
Cc1ccc(S(=O)(=O)NC(CC(C)C)C(=O)N2CCCCCCC2)cc1 (stereo not given)	0.65	i	4.0	-14%	-0.1	-2.8	-1.6
Cc1cc(OC(=O)c2ccc(C(C)(C)C)cc2)c([N+](=O)[O-])c(=O)[nH]1	0.73	i	8.0	1%	-0.4	2.8	-0.5
O=C(Nc1nnc(-c2ccc(Cl)cc2)o1)Nc1ccccc1F	0.71	i	0.4	/	-0.3	0.7	-3.6
Cc1ccc(NC(=O)CSc2nnc(CNC(=O)c3cccs3)o2)c(C)c1	0.67	i	-3.1	-1%	4.3	0.8	-2.3
CCOc1c(Cl)cc(CNCC(O)c2ccccc2)cc1OC (stereo not given)	0.68	i	1.7	/	-4.1	2.9	-4.4
O=S(=O)(NCC1CCCO1)c1ccc2c(c1)OCCO2 (stereo not given)	0.75	/	-1.0	-1%	/	4.4	/
Cc1ccc(S(=O)(=O)N2CCC(=O)N(CCOCc3cccc(F)c3)CC2)cc1	0.68	i	-0.9	-5%	-2.3	15	1.0
COc1cc(-c2nnc(-c3cc(-c4ccccc4)nc4ccccc34)o2)cc(OC)c1OC	0.7	i	-108	/	/	-2.6	-3.6
Clc1ccc(OCc2nn3c(C4CCCCC4)nnc3s2)c(Cl)c1	0.72	/	-1.3	-5%	/	7.7	/
CN(C1CCCCC1)S(=O)(=O)c1ccc(NC(=S)NC(=O)c2cccs2)cc1	0.73	/	-3.8	9%	-1.0	1.2	/
COc1cccc(Nc2nc(C(N)Cc3ccc(C(F)(F)F)cc3)cs2)n1 (stereo not given)	/	i	/	/	/	2.9	4.2
COc1ccc(CCC(C)N(C)Cc2ccccc2)cc1 (stereo not given)	0.68	i	-0.4	-3%	-1.1	-1.9	-3.2
c1ccc(C2=NNC(c3ccccn3)=NN2)nc1	0.67	i	6.3	/	1.3	2.3	1.2
O=C(C1CCCN1S(=O)(=O)c1ccc(Cl)cc1)N1CCOCC1 (stereo not given)	0.67	/	1.2	-1%	-0.7	4.5	/
CN(C)CCNC(=O)COc1cccc2c1OC(C)(C)C2	0.72	i	2.6	0%	-1.1	-2.1	1.8
COc1ccc(OC)c(/C=C/C(=O)NCCc2nc3ccccc3[nH]2)c1	0.68	i	-459	2%	0.8	-0.5	3.9
O=C(O)[C@@H]1Cc2ccccc2N1	0.65	i	2.6	0%	1.1	8.0	-2.4
COc1ccccc1OCC(=O)Nc1ccc(Cl)cc1	0.71	/	1.6	32%	0.0	2.2	/
CCCCCc1nnc(NC(=O)c2ccc(N3CCCC3=O)cc2)s1	0.66	i	-6.8	-17%	-1.5	-1.5	-0.9
CN(C)S(=O)(=O)N1CCC(Oc2cccc(C(=O)NCCC3=CCCCC3)c2)CC1	0.74	i	22*	1%	-0.2	-4.9	0.8
O=C1C=C(NCc2ccc(Cl)cc2)CCC1	0.67	/	-1.4	?	?	1.4	/
Cc1ccc(C(=O)Oc2ccc(-c3nnco3)cc2)o1	0.64	/	1.5	/	-3.8	0.6	-0.1
CC(C(=O)Nc1nnc(C2CC2)s1)N1C(=O)C2CC=CCC2C1=O (stereo not given)	0.63	i	1.9	-2%	/	-0.4	3.2
CC[C@]12c3[nH]c4ccccc4c3CCN1C(=O)C(CC(=O)NCC13CC4CC(CC(C4)C1)C3)C[C@@H]2C(=O)N1CCN(C(=O)c2ccco2)CC1 (stereo not given in full)	0.69	i	4.6	-5%	/	2.8	2.9
CN1N=C2c3ccccc3CCC2C1c1ccc(C(F)(F)F)cc1 (stereo not given)	0.64	/	-2.6	-8%	-0.8	/	/
Cc1ccc(NC(=O)C(=O)NCC2CCN(C(=O)c3cccc([N+](=O)[O-])c3)CC2)cc1	0.65	i	-2.3	-6%	2.2	6.5	-1.7
O=C(C[n+]1cccc(C(=O)Nc2ccccc2)c1)c1ccc(Cl)cc1	/	i	/	/	/	6.5	8.1
C/C(=N\Nc1nc(C(C)(C)C)cs1)c1ccccc1	/	i	/	/	6.9	0.7	9.9
C=CCN1C(=O)S/C(=C\c2ccc3c(c2)n(C)c(=O)n3C)C1=O	0.66	i	-20	-5%	3.2	1.4	5.3
CC(C)C(=O)NNC(=O)C1CC1(c1ccccc1)c1ccccc1 (stereo not given)	0.66	i	0.3	6%	5.0	-1.0	-1.5
CCc1nc(-c2ccccc2)c2ccccn12	0.7	/	5.8	16%	4.8	2.5	0.3
COc1ccc(CCNC(=O)C2CCN(S(=O)(=O)c3c(C)noc3C)CC2)cc1OC	0.74	/	3.1	9%&-4%	-0.2	-2.7	/
O=C(Nc1ccccc1C(=O)NCCN1CCOCC1)c1ccco1	0.63	/	2.0	0%	-0.6	0.2	/
COc1ccc(C(=O)COC(=O)[C@H](C)Nc2ccc(C(F)(F)F)cc2[N+](=O)[O-])cc1	0.74	/	1.4	26%	1.5	6.8	/
CCOC(=O)N1CCN(CC(=O)Nc2ccc(C)cc2)CC1	0.69	i	1.4	2%	1.5	0.6	2.6
Cc1ccc(C(=O)NCC(=O)OCN2C(=O)c3ccccc3C2=O)cc1C	0.69	i	0.1	/	/	0.8	0.1
O=C(CNc1ccc2c(c1)OCO2)N/N=C\c1ccccc1Cl	/	i	/	?	-0.1	1.1	1.5

# Entries above that have two or more sulfur atoms (2):
SMILES	E coli growth	FGF22 binding	UCH37 DUB inh	Vif A3G	RanGTP-Impb inh	HNF4A DNA FP	AF4-AF9 inh
Cc1ccc(NC(=O)CSc2nnc(CNC(=O)c3cccs3)o2)c(C)c1	0.67	i	-3.1	-1%	4.3	0.8	-2.3
CN(C1CCCCC1)S(=O)(=O)c1ccc(NC(=S)NC(=O)c2cccs2)cc1	0.73	/	-3.8	9%	-1.0	1.2	/

# Additional compounds
SMILES	E coli growth	FGF22 binding	UCH37 DUB inh	Vif A3G	RanGTP-Impb inh	HNF4A DNA FP	AF4-AF9 inh
CCCCCCOc1cccc(N)c1	0.66	/	3.5	21%	-1.7	1.2	/
c1ccc(CCCCc2ccccn2)cc1	0.63	i	1.2	-2%	/	0.7	-5.3
CCCNC(=O)NC(=O)CSc1nnc(-c2ccncc2)n1CC	0.7	i	-20	3%	1.3	-3.3	5.4
O=C(CCC1=NS(=O)(=O)c2ccccc2N1)NC1CCCCCCC1	0.64	/	1.6	-4%	-4.8	2.6	/
N#Cc1ccccc1NC(=O)CN1CCN(c2ccccn2)CC1	0.7	i	3.9	-8%	1.1	0.2	-6.1
CCC1CN(C(=O)NCc2ccccc2)c2cc(C)ccc2O1 (stereo not given)	0.7	i	2.1	-7%	-3.6	1.8	1.7
O=C(c1cc(S(=O)(=O)N2CCCCC2)ccc1N1CCOCC1)N1CCN(Cc2ccccc2)CC1	0.63	i	1.6	/	?	1.8	-2.2
CC(=O)C1C(c2ccc(Cl)cc2)NC(=O)NC1(O)C(F)(F)F (stereo not given)	0.69	i	4.6	-5%	1.0	0.6	-1.1
CCC(C)N(C(=O)c1csnn1)C(C(=O)NCc1ccc(F)cc1)c1ccccc1 (stereo not given)	0.67	i	4.1	/	-0.8	1.1	3.4
CCCCn1nc(C(=O)Oc2ccc3c(C)cc(=O)oc3c2)c2ccccc2c1=O	0.67	i	i	/	3.6	1.3	0.2
O=C(CC(=O)c1ccccc1)Nc1cc(C(F)(F)F)ccc1Cl	0.68	i	0.5	-5%	0.2	-0.8	-1.2
Fc1ccc(Nc2nc(NCc3ccccc3)nc3ccsc23)cc1	/	i	/	/	/	0.0	5.0
CCC(=O)NC(c1ccco1)c1cc(Cl)c2cccnc2c1O (stereo not given)	0.71	i	0.3	30%	-3.1	-0.7	-1.9
N=c1sccn1CC(=O)Nc1cccc(Oc2ccccc2)c1	0.69	/	0.1	32%	0.9	1.9	/
CC(CCc1ccc(O)cc1)NCc1ccc(Br)cc1 (stereo not given)	0.65	i	1.7	-4%	3.2	0.6	-0.3
O=C(NCC1CCCO1)C(=O)N/N=C\c1ccc2c(c1)OCO2 (stereo not given)	/	i	/	/	0.3	2.6	-1.3
CCc1cccc(C)c1NC(=O)COC(=O)C(NS(=O)(=O)c1ccc(Cl)cc1)C(C)O (stereo not given)	0.65	i	-0.2	1%	9.1	2.5	-4.7
CCn1ccnc1CN1CCc2c([nH]c3ccccc23)C1C1CCCCC1 (stereo not given)	0.66	i	-9.4	-6%	10	3.0	0.7
Cc1ccc2nc3c(cc(C(=O)NCCc4ccccc4)c(=N)n3CCN3CCOCC3)c(=O)n2c1	0.68	/	-190	/	159*	-1.1	/
CCCCN(C(=O)COC(=O)CSc1cc(C)c2ccccc2n1)c1c(N)n(CCC)c(=O)[nH]c1=O	0.73	i	2.1	1%	-3.5	4.1	-2.3
CCOc1ccccc1NC(=O)c1cccc(NC(=O)c2ccco2)c1	0.76	/	0.2	11%	5.2	0.9	/
Cc1ccc2oc(C(=O)NC3CCS(=O)(=O)C3)c(C)c2c1 (stereo not given)	0.7	i	-1.5	-5%	-1.9	0.6	-0.5
Cc1cccc(OCCn2c(=S)[nH]c3ccccc32)c1	0.67	/	2.7	-6%	4.2	-2.5	/
CC(C(=O)OCC(=O)c1ccccc1)N1C(=O)C2C3CCC(C3)C2C1=O (stereo not given)	0.67	i	0.1	-13%	0.0	-2.4	-1.7
Cc1ccc(O)c(C(=O)c2cc(C#N)c3nc4ccccc4n3c2)c1	0.64	i	-6.7	1%	-7.6	81	-2.8
O=C(Nc1ccccc1Cl)c1cc(C2CCCCN2C(=O)c2ccccc2)on1 (stereo not given)	/	i	/	/	/	4.3	-5.0
CC(=O)c1ccc(NC(=O)C2CCCO2)cc1 (stereo not given)	0.69	i	1.1	/	-3.7	-2.7	-7.7
CN(CCc1nc2ccccc2[nH]1)Cc1nc(CC2CC2)no1	0.7	i	5.3	-2%	5.7	0.5	1.3
CC(C)Cc1cc(C(=O)N2CCCC(CO)(Cc3ccc(F)cc3)C2)no1 (stereo not given)	0.62	i	0.0	/	2.9	5.3	-11
O=c1cc(-c2ccccc2)n(S(=O)(=O)c2ccccc2)o1	0.74	/	3.2	4%	-0.6	6.9	/
CC1=C(C(=O)OC2CCCCC2)C(c2cccs2)n2c(nc3ccccc32)N1 (stereo not given)	/	/	1.2	-7%	1.4	0.8	/
CCCNC(=O)C1(C)CCN(C(=O)COCc2ccccc2)C1 (stereo not given)	/	i	/	/	/	2.0	-0.7
Cc1ccc(CS(=O)(=O)CCC(=O)NCCC(C)C)cc1	0.72	/	3.9	2%	-1.4	1.2	/

# Compound activity from PubChem BioAssay.

# The list is partial (hit frequency here may not be typical).
